# Mtb growth: Mycobacterium tuberculosis H37Rv growth inhibition, cell based, confirmatory dose response (AID 1949). most inactive calls were filed without a number and no value below 0 was filed. inhibition, % at 10 µg/mL, or IC50 in µg/mL where a hit was titrated. 1.6% of 100,000 active;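 active = confirmed in a dose series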;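 also: bacteria grown 7 days with compound before Alamar blue readout; 0% = untreated bacteria and 100% = reference antibiotic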
# * hit, by the source's call; i = inactive. The list is partial, so the mix of outcomes need not match the whole.
SMILES,Mtb growth
COc1ccc(-c2noc(CN3CCN(c4ccccc4)CC3)n2)cc1,0.5%
CC(C)(C)C(=O)CSc1nnc(SCc2ccc(F)cc2)s1,27.0%
CCC(=O)NC(=S)Nc1ccc(Cl)c(-c2nc3ccccc3[nH]2)c1,i
COc1cc([N+](=O)[O-])ccc1NC(=O)Cc1c(F)cccc1Cl,i
COc1ccc(OC)c(/C=C/C(=O)Nc2cc(Cl)ccc2C)c1,i
CCCCN1C(=O)NC(=O)/C(=C\c2c(OC)cc(OC)cc2OC)C1=O,2.0%
C=CCNC(=O)c1ccccc1NC(=O)CN(c1ccc(Br)c(C)c1)S(C)(=O)=O,i
CCOc1ccc(NC(=O)c2cc3ccccc3o2)cc1,i
O=C(Nc1ccc(Cl)cc1F)C(c1ccccc1)c1ccccc1,1.6%
Cc1c(C(=O)N2CCOCC2)[nH]c2c1C(=O)CC(c1ccccc1Cl)C2 (stereo not given),i
COc1ccccc1OCc1ccc(C(=O)Nc2ccc(C(=O)OC(C)C)cc2)o1,0.5%
CCCCc1nnc(NC(=O)Cc2cccc3ccccc23)s1,i
COc1ccc(OC)c(NC(=S)Nc2ccn(Cc3cccc4ccccc34)n2)c1,i
O=c1c(N2CCCCC2)coc2ccccc12,3.2%
O=C(Nc1ncc(Cc2cccc(Cl)c2)s1)c1ccccc1Br,i
COc1ccc(C)cc1NC(=S)N1CCN(S(C)(=O)=O)CC1,i
CC1=C(C(=O)OCCc2ccccc2)C(c2ccccc2Br)C2=C(CCCC2=O)N1 (stereo not given),i
O=C(CN1CCOCC1)NCCNc1c(Cl)c(Cl)c(Cl)c(Cl)c1Cl,0.7%
COc1ccc(S(=O)(=O)N2CCC(C(=O)NCc3ccc(C)cc3)CC2)cc1,i
C=CCNC(=S)NNC(=O)CCSCc1ccccc1,i
CCOC(=O)C1CCN(C(=O)CN(c2ccccc2OCC)S(=O)(=O)c2ccc(Cl)cc2)CC1,i
N#Cc1nc2c(-c3nc4ccccc4s3)c(N)n(CCc3ccccc3)c2nc1C#N,1.3%
CC(=O)c1ccc(NC(=O)Nc2ccc(Cl)cn2)cc1,i
COC(=O)c1ccccc1NC(=S)NC(=O)c1cccc(I)c1,1.1%
Cc1ccc(CN(CC(=O)Nc2cccc(C)c2)S(=O)(=O)c2ccccc2)cc1,0.9%
Cc1nn2c3ccccc3nc2n(-c2ccccc2)c1=O,i
COc1ccc(NC(=S)Nc2ccccc2SC)c(OC)c1,i
Cc1cccc(C(C)C)c1NS(=O)(=O)c1cc(Cl)ccc1Cl,i
CCNC(=S)NCCSc1ccc(Cl)cc1,i
O=C(COc1ccc(Br)cc1C(=O)Nc1ccc(Cl)cc1)NC1CCCCC1,i
CC1=CC(C)(C)N(C(=O)CSc2nc3ccccc3[nH]2)c2ccc(C)cc21,i
CCCCCn1c(NCc2ccc(N(C)C)cc2)nc2ccccc21,2.9µg/mL*
CCOc1cc(C(=O)Oc2ccc3c4c(c(=O)oc3c2)CCC4)cc(OCC)c1OCC,i
O=C(NC1CCCCCC1)C1COc2ccccc2O1 (stereo not given),i
O=c1c2c(n3c(=S)[nH]nc3n1Cc1ccccc1)-c1ccccc1CC21CCCCC1,2.1%
CCc1ccccc1NC(=O)c1cc2c(n(-c3ccc(Cl)c(Cl)c3)c1=O)CC(C)(C)CC2=O,i
Cc1ccc(Cl)cc1N(CC(=O)Nc1ccc(I)cc1)S(C)(=O)=O,4.66µg/mL*
Nc1cc(=O)[nH]c(SCC(=O)Nc2c(Cl)cccc2Cl)n1,i
CC(Oc1cccc(Cl)c1)c1nc(-c2cccnc2)no1 (stereo not given),i
CCc1nc2c(sc3nc4c(cc32)COC(C)(C)C4)c(=O)n1Cc1ccco1,15.4%
CCOc1ccc(C2NC(=S)NC(c3ccccc3)=C2C(=O)c2ccccc2)cc1OC (stereo not given),i
COc1ccc(C(=O)Oc2ccc(/C=C3\N=C(c4ccccc4F)OC3=O)cc2)cc1,i
O=C(CCSc1nc2ccccc2o1)Nc1ccc(Br)cc1,i
N#Cc1c(NCCN)nc(-c2ccccc2)c2c1CCCC2,i
COc1cc2nc3n(Cc4ccccc4)c4ccccc4n3c(=O)c2cc1OC,7.0%
O=c1[nH]c2ccccc2n1Cc1ccc(Cl)cc1Cl,i
CCC(C)NCCOc1cc(C)ccc1Cl (stereo not given),i
Cc1[nH]c2ccccc2c1C(=O)CSc1nnc(C)n1-c1ccccc1,i
CCc1ccc(OCC(=O)Nc2ccc3oc(-c4ccccc4F)nc3c2)cc1,i
Cc1ccc(CCNC(=O)NC(C)(C)C)cc1,i
CS(=O)(=O)N(CC(=O)Nc1cccc([N+](=O)[O-])c1)c1cc(C(F)(F)F)ccc1Cl,3.1%
COc1cc(C(=S)N2CCOCC2)ccc1OC(=O)c1ccc(Cl)cc1Cl,1.8%
Cc1ccc(N(C(=O)COc2ccc(C(C)C)cc2)C2C=CS(=O)(=O)C2)cc1 (stereo not given),0.1%
COc1ccc(S(=O)(=O)Nc2cc(C)ccc2OC)cc1Cl,i
O=C(COc1cc(Cl)c(Cl)cc1Cl)Nc1ccc(N2CCOCC2)c(Cl)c1,i
CCOc1ccc(NC(=O)c2ccc3c(c2)nnn3C)cc1,1.3%
COc1cc2ccccc2cc1C(=O)Nc1cccc(F)c1,i
CC(=O)Nc1ccc(OC(=O)N2CCC(C)CC2)cc1,i
O=c1ccnc(SCc2cccc(Br)c2)[nH]1,i
O=C(CSc1nnc(-c2ccccc2Cl)o1)Nc1ccccn1,i
# The list goes on:
SMILES,Mtb growth
CCOc1ccc(NC(=O)CC2S/C(=N\N=C\c3cccc(O)c3)NC2=O)cc1 (stereo not given),i
C=CCN1C(=S)N(c2ccc(CC)cc2)C2CS(=O)(=O)CC21 (stereo not given),i
COCc1cc(C)nc(N2CCc3ccccc32)c1C#N,i
Cc1cc(OCCOCCn2cnc3ccccc3c2=O)ccc1C(C)C,11.2%
Cc1c(C(=O)Nc2sc3c(c2C(N)=O)CCC3)oc2ccccc12,i
Cc1ccc(NC(=O)COc2cc(C)c(Br)c(C)c2)cc1C,i
CCOc1ccc(NC(=S)NNC(=O)CC(C)O)cc1 (stereo not given),i
Cc1nnc(NC(=O)CSc2nc(=O)cc(N)n2-c2ccccc2)s1,i
CCc1cccc(CC)c1NC(=O)CCN1C(=O)c2ccccc2C1=O,i
Cn1c(/C=C/c2cccc([N+](=O)[O-])c2)nc2ccc(I)cc2c1=O,1.8%
COc1cccc(-c2ccc(-c3noc(C)n3)c(OC)n2)c1,i
CCOC(=O)NC(=S)Nc1ccc(OC)cc1,i

# Five structures from above, ordered by formula weight, lowest first.
SMILES,Mtb growth
CCNC(=S)NCCSc1ccc(Cl)cc1,i
CCOc1ccc(NC(=O)c2cc3ccccc3o2)cc1,i
Cn1c(/C=C/c2cccc([N+](=O)[O-])c2)nc2ccc(I)cc2c1=O,1.8%
C=CCNC(=O)c1ccccc1NC(=O)CN(c1ccc(Br)c(C)c1)S(C)(=O)=O,i
CCc1ccccc1NC(=O)c1cc2c(n(-c3ccc(Cl)c(Cl)c3)c1=O)CC(C)(C)CC2=O,i

# Later entries.
SMILES,Mtb growth
Cc1c(-n2cccc2)cccc1[N+](=O)[O-],i
COc1cccc(C(=O)Nc2ccc(Cl)cc2C(F)(F)F)c1OC,34.4%
O=C(Cn1cnc2ccccc21)c1ccc(Cl)cc1,i
CC1(C)CC(NC(=O)c2ccccc2)CC(C)(C)N1,i
CN1CCN(C(=O)CN(Cc2ccccc2)S(C)(=O)=O)CC1,i
CC(C)c1ccc(OCC(=O)NCC2CCCO2)c(Br)c1 (stereo not given),3.4%
CCOC(=O)c1ccc(NC(=S)Nc2cccc(OC)c2)cc1,45.5%
CCOc1ccc(NC(=O)c2ccc(S(=O)(=O)N(CC(C)C)CC(C)C)cc2)cc1,i
Cc1cc(C(=O)Nc2nc(C)c(C(=O)N(C)C)s2)cs1,i
CCCCn1cnc2scc(-c3ccccc3)c2c1=O,6.2%
CC(Sc1ccc(Cl)cc1)C(=O)NC1CCCCCC1 (stereo not given),0.3%
COc1ccc(-c2nn(-c3ccccc3)cc2CN(Cc2ccccc2)C(C)=O)cc1,1.0%
O=c1c2ccccc2[nH]c(=S)n1CCO,i
COC(=O)N1CCN(c2ccc(C)c(C)c2)CC1,i
COc1ccc(CN2CCN(S(C)(=O)=O)CC2)c(OC)c1OC,i
O=c1cc(C23CC4CC(CC(C4)C2)C3)[nH][nH]1,34.8%
Cn1c(=O)c2ncn(CC(=O)Nc3cccc(O)c3)c2n(C)c1=O,i
COC(=O)c1cccc(COC(=O)CCC(=O)Nc2cccc3ccccc23)c1,i
Clc1ccc(OCCNC2CCCC2)cc1Cl,i
COc1ccc(N2CCN(C(=O)CN(C)S(=O)(=O)c3ccc(F)cc3)CC2)cc1,i
CS(=O)(=O)Nc1cc(-c2nn(CC(=O)N3CCCCC3)c(=O)c3ccccc23)ccc1N1CCOCC1,0.0%
Cc1nc(-c2ccc(C(=O)Nc3ccccc3F)cc2)cs1,i
N#CSCC(=O)n1c2c(c3ccccc31)CCCC2,i
O=C(Nc1ccc(OCc2ccccc2Cl)cc1)c1ncn[nH]1,i
Cc1ccc(N2CC(C(=O)NCc3ccc4c(c3)OCO4)CC2=O)cc1C (stereo not given),i
Cc1sc2ncn(Cc3cccc4ccccc34)c(=O)c2c1C,i
Cc1ccc(S(=O)(=O)/N=C(\Nc2ccccc2I)c2ccc(F)cc2)cc1,4.8%
CCOC(=O)c1c(NC(=O)CN(c2ccc(OC)cc2)S(C)(=O)=O)sc2c1CCCC2,24.3%
COc1cc2c(cc1NC(=S)Nc1ccc3c(c1)OCO3)oc1ccccc12,i
CC(CS(=O)(=O)c1ccc2ccccc2c1)N1CCOCC1 (stereo not given),1.6%
COC(=O)NC1(C(F)(F)F)NC(=O)N(c2ccc(F)cc2)C1=O (stereo not given),i
CCCNS(=O)(=O)c1ccc(CCC(=O)Nc2ccc(I)cc2)cc1,i
COc1cccc2cc(C(=O)NCc3ccccn3)c(=O)oc12,i
O=C(Nc1ccc(S(=O)(=O)N2CCc3ccccc3C2)cc1)c1ccccc1,i
COc1cc(CN2CCN(CC3CC=CCC3)CC2)cc(OC)c1OC (stereo not given),2.2%
C=CCOc1ccc(CNc2ccc(F)c(Cl)c2)cc1OC,15.7%
COc1ccc(Cc2nnc(SCC(=O)Nc3ccc(F)c(Cl)c3)o2)cc1,i
CCc1cccc(C)c1NC(=O)CSc1nnc(C)n1-c1ccc(OC)cc1,i
CN(C)c1ccc(NC(=O)CCC(=O)O)cc1,i
CC(C)(C)NS(=O)(=O)c1ccc(NS(C)(=O)=O)cc1,i
CCCOc1cccc(C(=O)Nc2ccc(OC)cc2OC)c1,i
Cc1ccc(S(=O)(=O)c2nc(S(C)(=O)=O)sc2NCc2ccccc2)cc1,i
CC(=O)Nc1ccc(S(=O)(=O)N(CCO)Cc2ccccc2)cc1,i
CS(=O)(=O)N1CCN(c2ccc(NC(=O)COc3ccc(C4CCCCC4)cc3)cc2)CC1,3.2%
Cc1ccc(C)c(OCCCC(=O)Nc2nnc(C(C)C)s2)c1,i
COc1cc(S(=O)(=O)NCc2ccc3c(c2)OCO3)ccc1Br,i
Cc1ccc(S(=O)(=O)NCCc2c(C)n(Cc3ccccc3)c3ccccc23)cc1,3.4%
CCCCNc1nc(=S)n(CC)c(C)c1C(C)=O,0.7%
Fc1ccccc1N1CCN(c2nnnn2-c2ccccc2)CC1,2.9%
COc1ccc(Cl)cc1NS(=O)(=O)c1ccc(OC)c(C)c1C,i
COc1ccc(S(=O)(=O)N(C)CC(=O)Nc2ccccc2)cc1C,0.1%
Cc1ccc(S(=O)(=O)NCc2ccccn2)c(C)c1C,i
CC(c1ccccc1)N(CCC(c1ccccc1)C1CCOC(C)(C)C1)C(=O)c1ccco1 (stereo not given),6.1%
C=CCNC(=S)NC(=O)c1oc2ccccc2c1C,2.3%
CCn1cnc2sc(C(=O)Nc3ccccc3OC)c(C)c2c1=O,i
COc1ccc(C(=O)N2CCC(C(=O)Nc3cccc(Br)c3)CC2)cc1,i
Cc1cc([N+](=O)[O-])ccc1NC(=O)CCCOc1ccc(Cl)cc1,i
O=C(Nc1cccc(O)c1)c1cccc(F)c1,i
COCCCNC(=S)NNC(=O)CCC(=O)Nc1ccc(C)c(C)c1,i
O=C(c1ccc2c(c1)OCO2)N1CCC2(CC1)OCCO2,i

# Structural class, those above with two or more sulfur atoms (eleven)
SMILES,Mtb growth
CC(C)(C)C(=O)CSc1nnc(SCc2ccc(F)cc2)s1,27.0%
COc1ccc(C)cc1NC(=S)N1CCN(S(C)(=O)=O)CC1,i
C=CCNC(=S)NNC(=O)CCSCc1ccccc1,i
COc1ccc(NC(=S)Nc2ccccc2SC)c(OC)c1,i
CCNC(=S)NCCSc1ccc(Cl)cc1,i
C=CCN1C(=S)N(c2ccc(CC)cc2)C2CS(=O)(=O)CC21 (stereo not given),i
Cc1nnc(NC(=O)CSc2nc(=O)cc(N)n2-c2ccccc2)s1,i
Cc1cc(C(=O)Nc2nc(C)c(C(=O)N(C)C)s2)cs1,i
CCOC(=O)c1c(NC(=O)CN(c2ccc(OC)cc2)S(C)(=O)=O)sc2c1CCCC2,24.3%
CC(C)(C)NS(=O)(=O)c1ccc(NS(C)(=O)=O)cc1,i
Cc1ccc(S(=O)(=O)c2nc(S(C)(=O)=O)sc2NCc2ccccc2)cc1,i

# Continuation.
SMILES,Mtb growth
COCCN1C=C(C(=O)OC)C(c2ccccc2C(F)(F)F)C(C(=O)OC)=C1,13.4%
NC(=O)c1ccccc1NC(=S)NC(=O)COc1ccccc1Cl,i
COC(=O)C1(C(O)C(=O)c2ccc(C)cc2C)CCCCC1 (stereo not given),0.6%
O=Cc1ccc(OCC(=O)O)c(Cl)c1,i
Cc1ccc(OCC(=O)Oc2ccc(Cl)cc2Br)cc1,i
CCOC(=O)c1c(NC(=S)N2CCN(C(=O)c3ccco3)CC2)sc2c1CCCCCC2,i
Cc1ccc(S(=O)(=O)N(CC(=O)NCc2ccccc2)Cc2ccccc2Cl)cc1,7.1%
CCOC(=O)c1c(NC(=O)CC(C)C)sc(C(N)=O)c1C,i
CC1=NN(C(C#N)c2cccc([N+](=O)[O-])c2)C(C)(C)C1 (stereo not given),i
Cc1cccnc1NC(=S)NC(=O)c1cccc(I)c1,i
COc1cccc(N(CC(=O)N2CCN(c3ccccc3F)CC2)S(=O)(=O)c2ccccc2)c1,i
Cc1nn2c(CN(C(=O)c3cccs3)c3ccccc3)nnc2c2ccccc12,i

# Assay outcomes (PubChem)
